HPGD inh = HPGD (human) dehydrogenase inhibition | P15428 | purified HPGD, NADH fluorescence kinetic, PGE2 substrate | Potency, µM, for inactives: top-dose activity change, negative = inhibition, actives largely listed as inhibitors | 150,000 compounds, 4.3% hits | AID 894; active = well fitted inhibition curve with a large enough effect (not every such curve was filed as active); inconclusive = small, poorly fitted or top-dose-only effect, or another doubt; inactive = no such curve, though single readings can be large or run the other way;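 further: top concentration of the series not given in the record; plate controls included wells without enzyme; inactives centre near -10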
Target sequence (P15428 whole entry, looked up): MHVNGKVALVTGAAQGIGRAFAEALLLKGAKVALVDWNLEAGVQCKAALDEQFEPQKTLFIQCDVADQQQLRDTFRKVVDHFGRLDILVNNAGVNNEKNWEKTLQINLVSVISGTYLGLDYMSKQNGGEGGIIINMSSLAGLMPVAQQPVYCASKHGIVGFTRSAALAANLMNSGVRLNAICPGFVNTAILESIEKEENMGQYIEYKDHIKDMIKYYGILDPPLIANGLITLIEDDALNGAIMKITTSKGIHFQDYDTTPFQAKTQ
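NADH formation kinetics: reaction with 30 uM PGE2 and 1 mM NAD+ (final), 20 nM enzyme, Tris-HCl pH 8 with Tween 20, after 15 min compound preincubation at room temperature. Fluorescence change, last versus first of five reads.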
* = called active by the depositor; ? = inconclusive. On the % scale 0 is the no-effect control and ±100 the full control effect; potency means the concentration at half of the fitted maximal effect. Not all compounds are listed; count on the stated rates, not on these rows.

SMILES,HPGD inh
c1c(C2CCCCC2)n[nH]c1CN1CCCCC1,-4%
Nc1ccc(O)c(C(=O)O)c1,11µM*
O=C(CN1C(=O)COc2ccccc21)N1CCCc2ccccc21,-7%
Cc1ccc(S(C)(=O)=O)cc1S(=O)(=O)Nc1cccc(Cl)c1,1%
CCOC(=O)C1CN(S(=O)(=O)c2ccccc2)CCN1S(=O)(=O)c1ccccc1 (stereo unspecified),5%
CC(=O)Nc1ccc(NC(=O)C(C)OC(=O)CN(C)S(=O)(=O)c2ccc(Cl)cc2)cc1 (stereo unspecified),-3%
CC(Oc1ccc(Cl)cc1Cl)C(=O)N/N=C1\CCCc2ccccc21 (stereo unspecified),-25%
O=C(c1cc2ncc(Br)cn2n1)N1CCN(C(=O)c2ccco2)CC1,-23%
O=C(CSc1nccn1-c1ccc(Cl)cc1)N1CCCc2ccccc21,1%
O=C(NCCc1ccccn1)c1cc(-c2ccc(Cl)c(Cl)c2Cl)nc2ccccc12,-17%
CCCCCOC(=O)CSc1nnc(-c2ccccc2)c(=O)[nH]1,-20%
CCN(CC(=O)c1c(N)n(C)c(=O)n(C)c1=O)c1cccc2ccccc12,-7%
COc1ccc(CCNC(=O)c2cc3c(=O)n4cccc(C)c4nc3n(Cc3ccncc3)c2=N)cc1,-24%
COc1ccc(/C=N/Nc2nnc(Cc3ccc(OC)c(OC)c3)c(=O)[nH]2)cc1OC,-19%
CCCCOC(=O)Oc1ccc2c(=O)c(Oc3cc(C)cc(C)c3)coc2c1,-13%
COc1cc(C2NC(=O)C(C#N)=C(S)N2c2ccc(C)cc2)ccc1OC(C)C (stereo unspecified),25µM*
Nc1nc(SCC(=O)Nc2c(Br)cc([N+](=O)[O-])cc2Br)n[nH]1,1%
CN(C1CCCCC1)S(=O)(=O)c1ccc(NC(=O)c2ccc(Br)o2)cc1,-28%
NC(=O)Cc1cn(-c2ncc(C(F)(F)F)cc2Cl)c2ccccc12,-19%
Cc1ccc(NC(=O)Nc2cccs2)nc1,-19%
CCOC(=O)Nc1ccc2c(c1)N(C(=O)CCN1CCOCC1)c1ccccc1S2=O (stereo unspecified),-6%
Nc1nc(NC(=O)c2ccco2)nn1-c1ccccc1,-1%
O=C(COC(=O)c1ccccn1)Nc1cccc(Cl)c1Cl,-13%
O=[N+]([O-])c1cccc(-c2ccc(/C=N/NC(=S)Nc3ccccc3)o2)c1,-6%
O=C(COC(=O)CCNS(=O)(=O)c1ccc2c(c1)OCCO2)NC1CCCc2ccccc21 (stereo unspecified),-11%
COc1ccc(-c2nn(C)c(=O)c3ccccc23)cc1NC(=O)Cn1nc(C)c2ccccc2c1=O,?
Cc1ccccc1-c1nc(NC2CCNCC2)c2ccccc2n1,-4%
CC(C)CN(CCOc1cccc(N2C(=O)C3=C(CCCC3)C2=O)c1)CC(C)C,-8%
CCCCC(=O)NC(=S)NNS(=O)(=O)c1ccccc1,20µM*
CCOC(=O)c1ccc(Nc2cc(C)nc(N3CCOCC3)n2)cc1,?
c1ccc(CCn2nnnc2CN2CCCc3ccccc32)cc1,-5%
COc1cccc(OC(C)c2ccnc3nc(/N=C/N(C)C)nn23)c1 (stereo unspecified),?
CCOc1ccc2[nH]c(=O)c(CN(Cc3nnnn3Cc3ccco3)C3CCCCC3)cc2c1,?
CCOC(=O)COc1ccc(S(=O)(=O)N2CCN(C(=O)OCC)CC2)cc1,3%
CCOc1cc(S(=O)(=O)NCc2cccs2)ccc1Cl,-13%
c1ccc(-c2ccccc2OCCCCN2CCCCC2)cc1,6%
O=C(CSc1nnc(-c2cccc(S(=O)(=O)N3CCCCC3)c2)o1)NCCC1=CCCCC1,1%
CC(C)NC(=O)COC(=O)c1cc(Br)ccc1Cl,22µM*
CC(C)(C)C1CCC(=NNS(=O)(=O)c2ccc(Br)cc2)CC1 (stereo unspecified),-5%
CCN(CC)S(=O)(=O)c1cc([N+](=O)[O-])ccc1N=Nc1c(O)[nH]c2ccccc12,-9%
O=C(COC(=O)CCCNC(=O)c1ccc(Cl)cc1)NC1CC1,-6%
O=C1CC(c2c[nH]c3ccccc23)C(=O)N1c1ccccc1 (stereo unspecified),-11%
COc1ccccc1C(=O)Nn1cnc2ccccc2c1=O,-10%
CCCc1[nH]nc2c1C(c1ccncc1)C(C#N)=C(N)O2 (stereo unspecified),-23%
CN(C)c1ccc(C(=O)C(O)c2ccccc2)cc1 (stereo unspecified),-22%
Cc1cc(C)nc(-n2ncc3c2CC(c2ccccc2)CC3=O)n1 (stereo unspecified),28µM*
COc1ccc(OC)c(NC(=O)C23CC4CC(C2)CC(n2cnc(Br)n2)(C4)C3)c1,-10%
Cc1cc(NC(=O)c2c(-c3ccccc3Cl)noc2C)no1,-10%
CCOc1nc(NCc2ccco2)nc(Nc2ccc(OC)cc2)n1,-13%
O=C(c1cc(-c2ccc(Cl)cc2)n(-c2cc(Cl)ccc2Cl)n1)N1CCOCC1,?
CCCNCC1COc2ccccc2O1 (stereo unspecified),-16%
Clc1ccc(/C=N/c2c(-c3ccc(Cl)cc3)nc3n2CCS3)cc1,-1%
COc1ccc(N(CC(=O)Nc2nccs2)S(=O)(=O)c2c(C)nn(C)c2C)cc1,-9%
COC(=O)[C@@]1(Cc2ccc(F)cc2)[C@H]2c3cc(C(=O)N(C)C)n(CC4CC4)c3C[C@H]2CN1C(=O)c1ccccc1,-11%
COCCN1C(=O)C(=O)/C(=C(/O)c2cccc(OC)c2)C1c1ccco1 (stereo unspecified),-9%
Cc1ccc(C2=NN(CC(=O)NCc3ccco3)C(=O)CC2)cc1,-2%
CCCNC(=O)CCc1cc(C(C)(C)C)c(O)c(C(C)(C)C)c1,-2%
Cc1nnc(SCCn2c(Br)nc3c2c(=O)n(C)c(=O)n3C)s1,0%
Cc1nc(C)c(CCNC(=O)c2ccc(C(F)(F)F)cc2)s1,-12%
Clc1cccc(Cl)c1CSc1nnc(CN2CCOCC2)n1-c1ccccc1,-6%

Some of the entries so far, field by field.
molecule: CC(C)NC(=O)COC(=O)c1cc(Br)ccc1Cl
  HPGD inh: 22µM*
molecule: O=C(CN1C(=O)COc2ccccc21)N1CCCc2ccccc21
  HPGD inh: -7%
molecule: COc1ccc(-c2nn(C)c(=O)c3ccccc23)cc1NC(=O)Cn1nc(C)c2ccccc2c1=O
  HPGD inh: ?
molecule: CN(C1CCCCC1)S(=O)(=O)c1ccc(NC(=O)c2ccc(Br)o2)cc1
  HPGD inh: -28%

Arranged by molar mass (highest first): 3 of the compounds above.
SMILES,HPGD inh
COC(=O)[C@@]1(Cc2ccc(F)cc2)[C@H]2c3cc(C(=O)N(C)C)n(CC4CC4)c3C[C@H]2CN1C(=O)c1ccccc1,-11%
COc1ccc(OC)c(NC(=O)C23CC4CC(C2)CC(n2cnc(Br)n2)(C4)C3)c1,-10%
CCCNCC1COc2ccccc2O1 (stereo unspecified),-16%

Following part.
SMILES,HPGD inh
CCOC(=O)c1c(N)sc(C(O)(C(F)(F)F)C(F)(F)F)c1-c1ccccc1,-8%
CN=C1NN=C(c2cc(C)n(-c3c(C)n(C)n(-c4ccccc4)c3=O)c2C)CS1,-27%
CC1(C)CC(CC(=O)O)(c2ccc(F)cc2)CCO1 (stereo unspecified),-5%
COc1cc(C2C3C(=O)N(c4ccccc4)C(=O)C3ON2c2ccccc2)ccc1O (stereo unspecified),-16%
CCCC(=O)NCc1nc2ccccc2n1C,-4%
Cn1c(=O)c2c(nc(NCc3cccnc3)n2Cc2cccc(C(F)(F)F)c2)n(C)c1=O,-5%
COc1cccc(OC)c1OCc1cc(C2C3CCCC=C3C(C#N)=C(N)C2(C#N)C#N)c(C)cc1C (stereo unspecified),-19%
NS(=O)(=O)c1nc(S(=O)(=O)O)c2[nH]cnc2n1,-13%
O=C1C2C3C=CC([C@@H]2C(=O)N1Cc1cccnc1)C31CC1 (stereo partly specified),-10%
COc1ccc(O)c(C(=O)c2cnc3onc(C)c3c2)c1,?
Cc1ccccc1OCC(=O)Nc1ccc2c(c1)COC2=O,-11%
O=C(COc1ccc(Cl)cc1)Nc1ccc(Cc2ccncc2)cc1,-9%
Cc1cc(C)c(C2C3=C(Nc4c2c(C)nn4-c2ccccn2)c2ccccc2C3=O)c(C)c1 (stereo unspecified),-10%
CCN(C(=O)CSc1nnnn1-c1cc(C)ccc1OC)C1CCS(=O)(=O)C1 (stereo unspecified),-11%
CCOC(=O)c1ccc(N2C(=O)CC(N(Cc3ccc4c(c3)OCO4)C(=O)Nc3ccccc3)C2=O)cc1 (stereo unspecified),-9%
COc1cc2c(cc1O)-c1ccccc1CN(C)C2,-10%
CN(C)c1oc(-c2ccccc2Cl)nc1P(=O)(c1ccccc1)c1ccccc1,-23%
CC(CCc1ccco1)NC(=O)c1cc2c(-c3ccccc3F)nn(C)c2s1 (stereo unspecified),?
N#Cc1cc(-c2ccc(Cl)cc2)cn(Cc2c(Cl)cccc2Cl)c1=O,?
COc1ccc(N/C=C\C(=O)c2ccc3c(c2)OCO3)cc1,-18%
Cc1cc2oc(=O)cc(-c3ccccc3)c2c(C)c1-c1ccoc1,-6%
CCOC(=O)c1cc(-c2ccc3c(c2)OCO3)nc2onc(C)c12,?
CCOC(=O)N1CCN(CC(O)COCc2cc(OC)c(OC)c(OC)c2)CC1 (stereo unspecified),-4%
O=C(CNC(=S)N(Cc1ccccc1)Cc1cccnc1)NC1CC1,-2%
CNC(=S)N(Cc1ccc2c(c1)OCO2)C1CC(=O)N(c2ccc(F)cc2)C1=O (stereo unspecified),-6%
O=C(Nc1ccccc1C(=O)NC1CCCC1)NC1CCCC1,-10%
O=C(c1cc(-c2ccccc2)nc2ccccc12)N1CCOCC1,-17%
O=C(CCNC(=O)c1ccc(Br)o1)NCc1ccccn1,-1%
Cc1ccc2nc(SCC(=O)O)nc(C)c2c1,-26%
CSc1oc(-c2ccco2)nc1S(=O)(=O)c1ccccc1,-21%
CC1(C)CC(=O)N(CC(=O)O)c2ccccc2S1(=O)=O,-9%
COc1ccc2oc3cc(C)[n+]([O-])c(-c4ccc(Br)cc4)c3c2c1,-12%
NC(=O)C1CCN(C(=O)CCc2nc3ccccc3c(=O)[nH]2)CC1,-12%
COC(=O)Nc1nn(Cc2ccccc2F)cc1Br,-14%
NC(=O)c1oc2ccccc2c1NC(=O)CN1CCCCC1,-17%
O=C(c1ccncc1)N(Cc1ccccc1)Cc1nc2ccccc2c(=O)[nH]1,-6%
Cc1cccn2c(=O)c3cc(C(=O)N4COCC4(C)C)n(C)c3nc12,?
COC(=O)CC1SC(=O)NC1=Nc1ccccc1 (stereo unspecified),-4%
Cc1c(NC(=O)NCCN2C(=O)C3C4C=CC(C4)C3C2=O)c(=O)n(-c2ccccc2)n1C (stereo unspecified),-6%
O=C(OCN1C(=O)c2ccccc2C1=O)c1ccco1,-15%
CCCC(C)NC(=S)NC(=O)c1cc(S(=O)(=O)N2CCOCC2)ccc1C (stereo unspecified),-3%
O=C(CCCNS(=O)(=O)c1cccs1)N1CCN(c2cccc(Cl)c2)CC1,-4%
C[N+]1(C)CC(O)[C@H](C(=O)[O-])C1 (stereo partly specified),-4%
NC(=O)Cn1c(=O)oc2ccccc21,?
CCOC(=O)CN1C(c2ccc(O)cc2)Nc2ccc(Br)cc2C1c1ccccc1 (stereo unspecified),-9%
CCCC(=O)N(c1ccc2oc(=O)sc2c1)S(=O)(=O)c1cccs1,-17%
Cn1c(C(=O)NCc2cccnc2)cc2sc(Cl)cc21,?
COc1ccccc1-c1c(C)nn2c(N3CCC4(CC3)OCCO4)cc(C)nc12,-4%
Cc1cc(=O)oc(C)c1C(=O)NCCCN1CCN(c2ccccc2F)CC1,?
CCCN1Cc2cccc(C(=O)Nc3ccc(CC)cc3)c2C1=O,-11%
COC(=O)c1sccc1NC(=O)c1cc(-c2ccc(C)cc2C)nc2ccccc12,?
Cc1ccccc1NC(=O)NCCc1nc2ccccc2[nH]1,4%
CCCC(=O)Nc1sc(C)c(C)c1C(=O)Nc1cccc(C)c1,-1%
COc1ccc(NC2CC(=O)N(c3ccccc3)C2=O)cc1 (stereo unspecified),-3%
Cc1ccc(C2CC(c3cccs3)=NN2C(=O)CSc2nc3ccccc3o2)cc1 (stereo unspecified),?
COc1cc2c(C(=O)N3CCN(Cc4ccc5c(c4)OCO5)CC3)cn(C)c(=O)c2cc1OC,-13%
O=C(CCc1n[nH]c(=O)[nH]c1=O)N1CCCCC1,-19%
O=C1NC(=Nc2ccccc2)S/C1=C\C=C\c1ccco1,28µM*
COc1ccc(CNC(=O)c2cnc3scc(C)n3c2=O)cc1,?
CCOC(=O)c1c(C)n(CCNC(C)=O)c2ccc(O)cc12,-7%

More entries follow.
SMILES,HPGD inh
Cc1cc(NC(=O)CSc2nc(-c3ccc(F)cc3)cs2)no1,-18%
C=CC1=C2C=C(C3CC3)N(CC(C)C)C=C2C(=O)C(C)(OC(=O)c2ccco2)C1=O (stereo unspecified),-3%
O=C(CN1C(=O)c2ccccc2C1=O)NCC1CCCO1 (stereo unspecified),-16%
Cc1ccc(/C=C/C(=O)Nc2nn[nH]n2)o1,-27%
CCOc1ccc(NCC2CCOC(C)(C)C2)cc1 (stereo unspecified),-16%

Source: PubChem BioAssay
